# Source: PubChem BioAssay
# PrP 5UTR inh: inhibition of PrP 5' UTR reporter expression; cell-based PrP 5' UTR mRNA reporter, plate reader; inhibition, % (no concentration beside the values); actives 0.35% (n = 340,000); AID 488862, 2010;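 active = every replicate at 50% or more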;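 note: 0 = median of the neutral control wells; tested in H4 reporter cells; numbers are from one replicate; inactives centre near -14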
# Autofluor counter: counter-screen for toxin protease inhibitors: compound fluorescence. fluorescence intensity (concentration not given with the values). compound autofluorescence counterscreen, microsphere flow cytometry; hits give high values. actives 3.1% (n = 360,000). AID 624483;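 active = at least 3 SD above the mean of all compounds, about 16000 in these data; inconclusive = too few beads counted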;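 note: 100 nL of 1 mM stock went into each well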
# Mtb hypoxia rep: PubChem AID 1159583; fluorescence inhibition, % (test concentration not listed); M. tuberculosis hypoxia-regulated fluorescent reporter, fluorescence; actives 0.1% (n = 300,000);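 active = 35 to 45% if threefold the growth effect, above 45% if 1.5-fold the growth effect; inactive = the rest, general growth blockers included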;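 note: wells of about 50 µL received 100 nL stock; 0% = vehicle wells and 100% = reference inhibitor wells; whole bacteria with a GFP reporter of the hypoxia response; strong numbers were not always called active; many hits fall short of the cut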
# BJeLR lethal: MLPCN primary cell-based screen for lethality selective to Ras in HRASV12 cells. AID 1554, 2009. BJeLR (HRASV12) viability, CellTiter-Glo ATP luminescence, 48 h; reference of the scale not given here. inhibition, % (concentration not given with the values). actives 0.17% (n = 300,000);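 active = replicate mean above 50%; inconclusive = above 50% but judged a plate artefact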;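 note: 50 nL library stock added to about 25 µL; numbers are from one replicate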
# Sa RN4220 lethal: growth inhibition of S. aureus RN4220, primary screen, OD600. 16 h. inhibition, % (concentration not given with the values). actives 0.33% (n = 330,000);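 active = z-score of -3 or lower and OD600 up to 0.18 on both plates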;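 note: plate controls were untreated cells for no effect and reference antibiotic for full effect; stock transfer was 100 nL into about 80 µL; one replicate is shown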
# ugtP null kill: growth inhibition of ugtP-null S. aureus, primary screen, RN4220 ugtP deletion, OD600; 16 h; some inactives read as strong as hits; growth inhibition, % (concentration not given with the values); actives 0.54% (n = 330,000);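 active = z-score under -3 and OD600 up to 0.15 on both plates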;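 note: plate controls were untreated wells for no effect and antibiotic for full effect; wells of about 80 µL received 100 nL stock; the first replicate is given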
# Mtb hypoxia rep growth: also measured in Mtb hypoxia rep; calls as there; growth inhibition, %; measured here: M. tuberculosis growth (absorbance);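 0% = vehicle and 100% = reference antibiotic; read after six days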
# * marks the source's active call; other numbers are inactive results; ? = inconclusive; . = not tested or not shown.
# Values run as follows: PrP 5UTR inh, Autofluor counter, Mtb hypoxia rep, Mtb hypoxia rep growth, BJeLR lethal, Sa RN4220 lethal, ugtP null kill
> Cc1cccc(NC(=O)c2cc(-c3ccc(C)c(C)c3O)n[nH]2)c1
 : -27, 3209, 8, 6, -3, -8.3, -8
> Cc1cnc(NC(=O)C2CCCO2)s1 (stereo not drawn)
 : -20, 16597*, -5, 4, 3, -1.0, 1
> CCOc1ccccc1N(C(=O)c1snc(C(N)=O)c1N)C(C(=O)NCc1ccccc1)c1ccc(O)cc1 (stereo not drawn)
 : -25, 3640, -6, 1, -7, 2.0, 7
> COc1ccc(N=Nc2c(O)[nH]c(=S)[nH]c2=O)cc1
 : -77, 4642, ., ., 1, 3.6, 10
> Cc1cccc(C(=O)O)c1NC(=O)c1ccc(F)cc1
 : -20, 4633, ., ., 21, 3.4, -2
> CC1CN(Cc2ccccc2)c2nc3c(c(=O)n(C)c(=O)n3C)n2C1 (stereo not drawn)
 : 2, 20687*, 7, 11, -4, 2.3, 0
> Cc1ccc(OCC(=O)Nc2cccc3nsnc23)c(C)c1
 : -44, 2657, ., ., -2, 5.0, 12
> Cc1ccc(NC(=S)NNC(C)(C)C)cc1
 : -14, ., 8, 14, -9, -2.5, 9
> CCCC(=O)Nc1nc2nc(C)cc(=O)n2[nH]1
 : 2, 2422, 7, 5, -2, 17, 21
> NCC(=O)NCC(=O)NC1(C(=O)O)CCCC1
 : -8, 4070, -1, -3, ., 4.2, 4

# Rewritten bar-delimited: part of the list above.
Molecule | PrP 5UTR inh | Autofluor counter | Mtb hypoxia rep | Mtb hypoxia rep growth | BJeLR lethal | Sa RN4220 lethal | ugtP null kill
Cc1cnc(NC(=O)C2CCCO2)s1 (stereo not drawn) | -20 | 16597* | -5 | 4 | 3 | -1.0 | 1
CCOc1ccccc1N(C(=O)c1snc(C(N)=O)c1N)C(C(=O)NCc1ccccc1)c1ccc(O)cc1 (stereo not drawn) | -25 | 3640 | -6 | 1 | -7 | 2.0 | 7
COc1ccc(N=Nc2c(O)[nH]c(=S)[nH]c2=O)cc1 | -77 | 4642 | . | . | 1 | 3.6 | 10
Cc1cccc(C(=O)O)c1NC(=O)c1ccc(F)cc1 | -20 | 4633 | . | . | 21 | 3.4 | -2
CC1CN(Cc2ccccc2)c2nc3c(c(=O)n(C)c(=O)n3C)n2C1 (stereo not drawn) | 2 | 20687* | 7 | 11 | -4 | 2.3 | 0

# The list goes on:
# Values run as follows: PrP 5UTR inh, Autofluor counter, Mtb hypoxia rep, Mtb hypoxia rep growth, BJeLR lethal, Sa RN4220 lethal, ugtP null kill
> CC(C(=O)OCC(=O)c1ccc([N+](=O)[O-])cc1)N1C(=O)C2C3C=CC(C3)C2C1=O (stereo not drawn)
 : 8, 4878, 13, 7, -8, 7.2, 4
> Cc1cc(C(=O)Nc2ccncc2)c(C)o1
 : -4, ?, -3, -2, ., 1.0, 0
> CC(C)c1ccc(/C=N/NC(=O)c2c(Cl)cnn2C)cc1
 : -103, 2210, ., ., 4, ., .
> O=C(Nc1cccc(S(=O)(=O)N2CCOCC2)c1)C1CCCN(C(=O)c2ccc(Cl)cc2)C1 (stereo not drawn)
 : 4, 3392, 1, 2, 3, -3.5, -4
> NC(=O)c1oc2ccccc2c1NC(=O)CS(=O)(=O)c1ccccc1
 : 10, 4233, 8, -3, -5, 7.1, 13
> O=C(CC1NCCNC1=O)Nc1cccc([N+](=O)[O-])c1 (stereo not drawn)
 : -24, 4810, 3, 8, 6, 2.0, 0
> COc1ccccc1OCCn1c(=O)n(C)c2ccccc21
 : -24, 4527, 7, 8, 12, 3.5, -3
> COC(=O)c1ccc(Nc2ncnc3sccc23)cc1
 : -41, 3953, 7, 9, -4, 2.5, 14
> COc1ccc(Cn2c(=O)[nH]c3cc(C(=O)Nc4ccccc4C)ccc32)cc1
 : -1, 3794, -18, -6, -4, -8.4, 0
> O=C(O)c1ccc2c(c1)C(=O)N(c1cccc(S(=O)(=O)Nc3cccc(C(F)(F)F)c3)c1)C2=O
 : -16, 4766, 11, 13, 1, 3.9, 6
> c1nc(CCOC2CCCCO2)cc2cc3c(cc12)OCO3 (stereo not drawn)
 : ., ., 4, -3, ., 9.5, 5
> Cc1ccc(NC(=O)NCc2cccnc2)cc1Cl
 : -23, 5648, -8, 9, 2, -2.8, -9
> CC1(NC(=O)CSc2nnc(-c3c[nH]c4ccccc34)n2C2CC2)CCS(=O)(=O)C1 (stereo not drawn)
 : -59, 8060, 5, 2, ., 6.2, 3
> CC(=O)Nc1ccc(S(=O)(=O)N2CCN(Cc3nc4sc(C)c(C)c4c(=O)[nH]3)CC2)cc1
 : -25, 5365, 3, 11, -15, 2.3, 15
> Cc1ccc(S(=O)(=O)NCCc2cn3nc(C)c(C)nc3n2)cc1C
 : 2, 5492, ., ., 0, ., .
> Cc1ccc(NC(=O)C2CCCCC2C(=O)O)cc1C (stereo not drawn)
 : -18, 3745, -4, -6, 5, 0.6, -4
> CC(NCc1ccc(Cl)c(Cl)c1)C(O)c1ccccc1 (stereo not drawn)
 : 1, 8977, -3, -9, -2, -0.1, -10
> Cc1ccc(S(=O)(=O)N(C)CCCC(=O)Nc2ccc(F)cc2)cc1
 : -3, 4639, 14, 6, -2, 2.0, 10
> Nc1nnc(CSCc2ccc(F)cc2)s1
 : -6, 7779, 6, -2, 2, 5.5, 12
> Cc1nn2c(NCCCN(C)C)c3c(nc2c1-c1ccccc1)CCC3
 : -15, 9993, 12, 1, 2, 0.7, -1

# Single records, from the list above. Values in the order: PrP 5UTR inh	Autofluor counter	Mtb hypoxia rep	Mtb hypoxia rep growth	BJeLR lethal	Sa RN4220 lethal	ugtP null kill
# Profile of `Nc1nnc(CSCc2ccc(F)cc2)s1` : -6	7779	6	-2	2	5.5	12
# Profile of `Cc1ccc(S(=O)(=O)NCCc2cn3nc(C)c(C)nc3n2)cc1C` : 2	5492	.	.	0	.	.
# Profile of `CC(=O)Nc1ccc(S(=O)(=O)N2CCN(Cc3nc4sc(C)c(C)c4c(=O)[nH]3)CC2)cc1` : -25	5365	3	11	-15	2.3	15

# Following part
# Values run as follows: PrP 5UTR inh, Autofluor counter, Mtb hypoxia rep, Mtb hypoxia rep growth, BJeLR lethal, Sa RN4220 lethal, ugtP null kill
> Cc1ccc2[nH]c(=O)c(CNC(C)(C)C)cc2c1
 : -5, 2405, 4, -4, -1, 7.2, 2
> O=C1NC(=O)C2(CCN(S(=O)(=O)c3ccccc3)CC2)C(=O)N1
 : -5, 2966, 8, 5, ., 5.9, 12
> O=C(NC(C(=O)N1CCCC1C(=O)O)=C1CCCCC1)c1ccccc1 (stereo not drawn)
 : -7, 2472, ., ., 3, -4.1, 6
> CCOC(=O)C1=C(N)N2C(=O)C(C)SC2=C(C(=O)OCC)C1c1ccccc1 (stereo not drawn)
 : -16, 4346, ., ., -2, 1.6, -1
> C[C@H](NC(=O)c1ccccc1Cl)C(=O)OCC(=O)NNC(=O)c1cccs1
 : -22, 4148, -1, -1, -5, 0.8, 2
> Clc1ccccc1CN1CCN(N=CC=Cc2ccco2)CC1
 : ., ., 1, 3, ., 3.3, 2
> Cc1cccc(C(=O)Nc2nnc(COc3ccccc3)s2)c1
 : -27, 5276, 11, 7, 2, 9.0, 2
> CCCCN(C(=O)c1cccc2c(=O)c(C)c(-c3ccccc3)oc12)c1ccccc1
 : -8, 2003, 1, 10, -1, -0.8, -16
> O=C(CSc1nnnn1C1CC1)N1CCN(Cc2ccccc2F)CC1
 : -7, 3759, 7, 8, ., 3.6, 4
> O=C(COC(=O)COc1cccc(F)c1)Nc1nc2ccccc2s1
 : -16, 5087, 10, 14, ., 0.8, -5
> CC(=O)c1ccc(S(=O)(=O)N(C)CCCC(=O)N2CCN(c3ncccn3)CC2)cc1
 : -17, 3963, 13, 7, ., 3.7, 4
> Cc1ccc(NC(=O)C2CCCN(c3ncccn3)C2)cc1C (stereo not drawn)
 : -28, 3288, -6, 5, -13, 2.2, -1
> Cc1ccc(N2C(=O)CC(N3CCc4ccccc43)C2=O)cc1Cl (stereo not drawn)
 : -12, 4346, 12, 5, 1, 5.9, 5
> CCNCc1ccccc1OCc1ccccc1
 : -19, 2124, -12, -5, 4, 2.8, 8
> COc1ccc(-c2noc(C(C)NC(=O)c3ccco3)n2)cc1OC (stereo not drawn)
 : -30, 3676, -3, 0, 0, 4.6, 18
> CCOC(=O)C1CCCN(Cc2nc(Cc3ccccc3Cl)no2)C1 (stereo not drawn)
 : -16, 2123, -1, -6, 7, -0.7, 9
> COC(=O)CCCC1=CC2=C(c3ccccc3)C(=O)C(C)(OC(=O)C3CCCC3)C(=O)C2=CN1CC1CC1 (stereo not drawn)
 : -4, 3731, 8, 4, -7, 6.5, 4
> CCc1ccccc1NC1=NCC(=O)N1Cc1ccccc1
 : -8, 3732, ., ., -2, 3.0, 1
> CCCCNCC#CCOc1cc(C)ccc1C(C)C
 : -21, 4613, -15, 4, 2, -3.3, -14
> Cc1[nH]c(=O)cc2ccccc12
 : -7, 3287, 7, 2, -6, 4.8, -2
> CC1=C(C(=O)Nc2ccccc2C)C(c2cccs2)NC(=S)N1 (stereo not drawn)
 : -2, 2068, 2, -5, -13, 3.7, 3
> CN(C)c1oc(/C=C/c2cccs2)nc1S(=O)(=O)c1ccccc1
 : -35, 5485, ., ., 1, ., .
> O=C(NCCOc1ccc(F)cc1)c1ccccc1SCc1ccccc1
 : -2, 2055, 15, -8, 0, 5.5, 4
> NC(=O)CC(NC(=O)Cc1ccc(Cl)cc1)c1ccc(NCCc2ccccc2F)c([N+](=O)[O-])c1 (stereo not drawn)
 : -25, 4007, 8, 10, 3, 1.4, 3
> N#Cc1c2n(c3c(=O)n(Cc4ccc(Cl)cc4)cnc13)CCCCC2
 : 0, 3595, ., ., -3, 13, -8
> COC(=O)C1=C(N)OC2=C(C(=O)CCC2)C1c1ccc2c(c1)OCO2 (stereo not drawn)
 : -15, 4259, 7, -5, -11, 5.2, -2
> CCCN1CCCc2cc(CN(CCCN3CCOCC3)C(=O)Nc3ccc(OCC)cc3)ccc21
 : -14, 22682*, 3, 6, 9, 2.2, 4
> COc1cc(C)c(NC(=S)Nc2ccc(C)c(Cl)c2)cc1OC
 : 7, 2314, -6, 7, -1, -2.0, -5
> Cn1c(SCC(=O)N2CCCC2)nc2cccnc21
 : -35, 4148, 1, 14, 4, 2.2, -4
> O=C(Nc1ccc(Cc2nc3ccccc3s2)cc1)c1ccncc1
 : -10, 6385, 5, 1, 2, 2.8, -3
> COC(=O)c1ccc(-c2ccc(C(c3c(C)[nH][nH]c3=O)c3c(C)[nH][nH]c3=O)o2)cc1
 : -18, 3614, 2, -3, -3, -6.8, -10
> COc1ccccc1N1CCN(C(=O)C2CCN(S(=O)(=O)c3ccccc3)CC2)CC1
 : -20, 10574, 6, 7, 0, 5.0, 11
> C=CCN1C(=O)C(Cc2ccc(F)cc2)S/C1=N/N=C/c1ccco1 (stereo not drawn)
 : -19, 2226, ., ., -10, ., .
> COc1ccc(OC)c(/C=C/C(=O)OCC(=O)Nc2cccc(C(C)=O)c2)c1
 : 2, 2548, 8, 6, -2, 8.1, 1
> O=C(COC(=O)c1cccs1)NCCN1C(=O)CSC1=O
 : 2, 3821, ., ., 9, 10, 5
> CC(=O)N1CCN(c2ccc(NC(=O)c3ccc(OCc4ccccc4)cc3)cc2)CC1
 : -19, 2212, 4, 1, -2, 2.5, 0
> COC(=O)C1CN(C(=O)C(C)Oc2ccccc2Cl)c2ccccc2O1 (stereo not drawn)
 : ., 3631, -4, -4, 11, 1.7, 4
> Cc1ccc(NC(=O)C(c2ccccc2)N(C)C)cc1Cl (stereo not drawn)
 : -11, 3441, -3, 6, -9, 2.5, -3
> Cc1ccccc1-n1c(SCC(=O)NC(N)=O)nc2sc(-c3ccccc3)cc2c1=O
 : 4, 2174, 8, -2, -6, 96*, 99*
> CN(C)c1nc(C=C(C#N)C#N)c(Cl)n1-c1ccc(F)cc1
 : -34, 4307, 11, 5, 34, -0.9, 0
> CCN(CC)c1ccc(NC(=O)c2ccco2)c(C)c1
 : -12, 8082, 9, 0, 4, 2.4, 1
> CCOc1cc(/C=C2/C(=N)N3C(=NC2=O)SN=C3S(=O)(=O)C(C)C)ccc1OC(=O)c1ccco1
 : -9, 6340, -3, -3, -7, 1.1, -1
> CCc1nc2c(n1O)CCc1nonc1-2
 : -21, 10623, 1, 4, -2, -1.8, -7
> Cc1ccc(-c2cc(C(=O)Nc3c(C#N)cnn3C)no2)cc1
 : -34, 8839, 2, 3, 9, 6.0, -2
> CCC(c1nnnn1Cc1ccco1)N1CCN(C(=O)c2ccco2)CC1 (stereo not drawn)
 : -10, 2389, ., ., 2, 2.4, 12
